Sa helicase inh: inhibitors of S. aureus replicative helicase, primary screen, biochemical, fluorescence unwinding readout; replicative DNA helicase (DnaC/DnaB), Staphylococcus aureus; purified S. aureus helicase, fluorescence unwinding assay; about half of the hits fall short of the stated cut; inhibition, %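 (tested at about 80 µM)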; AID 485395, 2010; 120,000 compounds, 0.05% hits;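 active = both duplicates at 50% or more, or one of them with a favoured structure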;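 note: 0% = mean of negative control wells and 100% = mean of positive control wells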
MgrA-DNA mod: S. aureus MgrA activity modulators, primary screen, biochemical, S. aureus Newman, fluorescence polarization; MgrA-DNA binding; inhibition, %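 (about 10 µg/mL by stock and volumes)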; 84,000 compounds, 0.13% hits; AID 602314, 2012;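 active = above 50% in either of two replicates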;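 note: 0% = protein plus DNA without compound and 100% = DNA alone without protein; higher means less MgrA bound to DNA so lower polarization; one replicate is shown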
* = called active by the depositor; · = no result given. This is a subset (hit frequency here may not be typical).

No.	Molecule	Sa helicase inh	MgrA-DNA mod
1	O=C1C2CCCN2C(=S)N1c1ccccc1 (stereo not given)	22	·
2	O=C(Cn1cnc2c(nnn2Cc2ccc(Cl)cc2)c1=O)NC1CCCC1	12	·
3	CCOC(=O)C1=C(N)Oc2ccccc2C1C(C#N)C#N (stereo not given)	·	4.0
4	CCC(CO)NS(=O)(=O)c1cc(-c2nnc3c4ccccc4c(C)nn23)ccc1OC (stereo not given)	-2	-2.0
5	O=C(N/N=C/c1cccc([N+](=O)[O-])c1)N/N=C/c1cccc([N+](=O)[O-])c1	·	4.1
6	Cc1ccc(C(=O)Nc2nonc2NC(=O)c2ccc(C)cc2)cc1	7	-1.9
7	O=S1(=O)CCC(N=Cc2ccccc2O)C1 (stereo not given)	2	·
8	CCN(C(=O)CSc1nc(C)cc(C)c1C(N)=O)C1CCS(=O)(=O)C1 (stereo not given)	6	·

No.	Molecule	Sa helicase inh	MgrA-DNA mod
9	COc1ccc(N2C(=O)c3ccccc3NC2c2ccc(OC)c(COc3ccccn3)c2)cc1 (stereo not given)	·	0.8
10	COc1ccc(-c2nnc(C3CCN(S(C)(=O)=O)CC3)o2)cc1	1	11
11	C/C(=N/NC(=O)C(F)(F)F)c1cccs1	2	0.1
12	O=C(CSc1ncnc2ccccc12)Nc1ccc(F)c(F)c1F	10	2.2
13	Cc1ccccc1-c1oncc1-c1nnnn1-c1ccccc1	·	3.5
14	CCOC(=O)c1c[nH]c2c(-c3ccccc3)c(C(F)(F)F)sc2c1=O	·	-0.1
15	CC(=O)Oc1ccc2c(c1)OC1(c3ccc(OC(C)=O)cc3OC(C)=O)CCCC1C21CCCC1 (stereo not given)	10	-1.2
16	CC(=O)NCc1ccc2[nH]c(C)cc2c1	14	·

Arranged by count of non-hydrogen atoms (high to low): 5 of the compounds above
No.	Molecule	Sa helicase inh	MgrA-DNA mod
9	COc1ccc(N2C(=O)c3ccccc3NC2c2ccc(OC)c(COc3ccccn3)c2)cc1 (stereo not given)	·	0.8
14	CCOC(=O)c1c[nH]c2c(-c3ccccc3)c(C(F)(F)F)sc2c1=O	·	-0.1
12	O=C(CSc1ncnc2ccccc12)Nc1ccc(F)c(F)c1F	10	2.2
13	Cc1ccccc1-c1oncc1-c1nnnn1-c1ccccc1	·	3.5
11	C/C(=N/NC(=O)C(F)(F)F)c1cccs1	2	0.1

New compounds follow:
No.	Molecule	Sa helicase inh	MgrA-DNA mod
17	Cc1c(-c2nc3ccccc3s2)oc2ccccc12	-22	·
18	CCCN(Cc1nnc(-c2ccco2)o1)C(=O)CSc1nc2ccccc2n1C	-20	·
19	Cn1cc(-c2nc3ccccc3s2)c(N)n1	-139	·
20	Cc1ccc2occ(/C=N/N3CC(=O)NC3=O)c(=O)c2c1	-2	·
21	COC(=O)NC(Nc1ccccc1C(F)(F)F)C(=O)c1ccccc1 (stereo not given)	8	2.9
22	COc1ccccc1NC(=O)C(C)Sc1nnc(N)s1 (stereo not given)	-12	·
23	CCCn1c(=O)c(C#N)nn(-c2ccccc2)c1=O	·	-1.4
24	COC(=O)c1c(C)sc2c(C(F)(F)F)cc(OC)nc12	·	0.2

No.	Molecule	Sa helicase inh	MgrA-DNA mod
25	CCn1c(SC)nc2c(c1=O)C1(CCCC1)Cc1ccccc1-2	19	·
26	FC(F)(F)c1cc(-c2ccccc2)n2c(n1)nc1ccccc12	7	-4.2
27	O=C(NC1C2CC3CC(C2)CC1C3)c1cccc(Cl)c1 (stereo not given)	-18	·
28	O=C(CC(c1ccccc1)c1ccccc1)NCC1COc2ccccc2O1 (stereo not given)	15	-1.0
29	COc1ccc(C(=O)N/N=c2/c(=O)c(=O)c3ccccc23)cc1	13	·
30	c1cc2c(cc1CNc1ccc3nncn3n1)OCO2	10	·
31	CC(=O)Nc1ccc(S(=O)(=O)NCc2ccc(C(=O)NCCN3CCCCCC3)cc2)cc1	-10	-0.5
32	CC(C)C(=O)N1CCCSC1=Nc1ccccc1	-12	·

No.	Molecule	Sa helicase inh	MgrA-DNA mod
33	CN(C)c1ccc(C=Nc2ccccc2)cc1	13	0.1
34	O=C1c2ccccc2C(=O)c2c(NC(=O)C(c3ccccc3)c3ccccc3)cccc21	·	0.5
35	O=c1c(-c2ccccc2Cl)coc2cc(O)ccc12	-20	·
36	CN(Cc1ccccc1)c1ncnc2onc(-c3cccc(Cl)c3)c12	-21	·
37	CC1=C(C(=O)OCc2ccc(C)cc2)C(c2ccccc2OCc2ccccc2)NC(=O)N1 (stereo not given)	·	3.4
38	COC(=O)Nc1cccc(Cl)c1	3	-1.1
39	COc1cc2c(cc1NC(=O)C(C)NCCc1ccc(F)cc1)oc1ccccc12 (stereo not given)	-11	·
40	O=C(C[n+]1ccccc1)Nc1ccccc1C(=O)O	6	-6.5

No.	Molecule	Sa helicase inh	MgrA-DNA mod
41	Cc1cc(OCC(=O)N(C(C)C)C(C)C)cc(C)c1Br	2	3.9
42	C=CCc1cccc2cc(NC(C)=O)c(=O)oc12	6	0.6
43	Cc1ccc(NC(=O)CSC2CCS(=O)(=O)C2)cc1Cl (stereo not given)	9	4.4
44	C/C(=N\N=C(/N)SC1CC(=O)N(C)C1=O)c1ccc(F)cc1 (stereo not given)	-6	3.2
45	COc1cc(CCNC(=O)c2cnn3ccccc23)cc(OC)c1OC	6	·
46	O=C(COc1ccc(S(=O)(=O)N2CCOCC2)cc1Cl)N1CCOCC1	-4	3.0
47	Cc1ccccc1NC(=O)COC(=O)c1ccccc1C(=O)c1ccccc1	1	0.4
48	FC(F)(F)c1cc(C(F)(F)F)n2[nH]c(=S)nc2n1	12	·

No.	Molecule	Sa helicase inh	MgrA-DNA mod
49	CC1CCCCN1CCCNC(=O)c1ccc(Br)cc1 (stereo not given)	-19	·
50	COc1ccc(-c2nc3ccccc3[nH]2)cc1OC	14	·
51	O=C(O)[C@H]1CCCC[C@H]1C(=O)NCCc1ccccc1	17	·
52	COc1ccc(C2CC(=O)C3=C(C2)NC(C)=C(C(=O)OCc2ccccc2)C3c2ccc3c(c2)OCO3)cc1 (stereo not given)	·	-0.7
53	CC1(C)C(=O)Nc2ccccc2N1C(=O)CSc1nnc(COc2ccccc2Cl)o1	7	·
54	CCc1cccc2c1=NC(=O)C=2c1sc(N)nc1O	14	·
55	O=c1[nH]c2ccc(S(=O)(=O)Nc3ccccc3)cc2o1	5	0.5
56	CC(C)(C)c1ccccc1N1C(=O)C=CC1=O	·	-8.8

No.	Molecule	Sa helicase inh	MgrA-DNA mod
57	O=C(c1ccco1)N(Cc1ccccc1)Cc1ccccc1	7	-3.4
58	O=C(Cn1ncc2c([nH]c3ccccc32)c1=O)NCC1CCN(Cc2ccccc2F)CC1	-8	·
59	COc1ccc(C(=O)N2CCn3c2nc2ccccc23)cc1	-24	·
60	Cn1cnnc1SCC(=O)N1CC2(C)CC1CC(C)(C)C2 (stereo not given)	-12	-2.7
61	N#CC(C(=O)Nc1ccccc1)=C1Nc2ccccc2N1	7	0.0
62	CCOc1ccc(C(=O)n2cnc3cc(C)c(C)cc32)cc1	4	1.9
63	CCN1CCN(CC(=O)c2ccccc2Br)CC1	-9	·
64	CC(C)N(C(=O)Cn1cc(S(=O)(=O)CC(N)=O)c2ccccc21)C(C)C	-1	·

No.	Molecule	Sa helicase inh	MgrA-DNA mod
65	CC1CCCCN1C(=O)CN1CCN(C)CC1 (stereo not given)	11	-35
66	CCc1nn(C(C)C(=O)NC)c(=O)c2cc3occc3n12 (stereo not given)	11	-0.7
67	CCc1cc2c(=O)n(Cc3ccccc3)c(SCc3c(C)noc3C)nc2s1	-8	·
68	Cc1ccc(-c2cc(C(F)(F)F)n3nc(C(=O)N(C)Cc4ccccc4)cc3n2)cc1	-3	-1.3
69	CCOC(=O)c1c(NC(C)=O)sc2c1CCCNC2=O	13	-0.1
70	O=C(CCN1CCN(Cc2ccc3c(c2)OCO3)CC1)N1N=CCC1(O)C(F)(F)F (stereo not given)	9	·
71	CC(=O)c1ccc(-c2c(Cl)cc(Cl)cc2Cl)o1	·	-1.5
72	CCCn1c(=O)n(C)c(=O)c2c(SCC(=O)/C(C#N)=C(\C)N)nc(CC(C)C)nc21	17	·

No.	Molecule	Sa helicase inh	MgrA-DNA mod
73	CSC(=NC(C)C)NC(C)C	·	-0.6
74	O=C(O)C(F)(F)C(NCc1ccccc1)c1ccccc1 (stereo not given)	-13	-2.8
75	Cc1ccc2c(Cl)cc(Cl)c(OCC(=O)N3CCc4ccccc43)c2n1	10	-1.3
76	CC(C)c1ccc(C2SCC(=O)N2C)cc1 (stereo not given)	5	·
77	COc1ccc(CNC(C)C(=O)NC2CCCCC2C)cc1 (stereo not given)	-1	·
78	CCCCN(C)S(=O)(=O)c1cccc2cccnc12	5	2.1
79	c1ccc(CNc2nc(NC3CCCCC3)nc(N3CCOCC3)n2)cc1	-3	2.4
80	COc1cc(/C=N/NC(=O)CSCc2c(Cl)cccc2Cl)cc(OC)c1OC	·	-1.3

No.	Molecule	Sa helicase inh	MgrA-DNA mod
81	CSc1nnc(C2CCCN2)n1C (stereo not given)	-5	-4.5
82	Clc1nc(Cl)nc(Nc2ccccc2)n1	10	0.2
83	CN(C)c1ccc(C(C#N)=C(C#N)C#N)cc1	-14	1.1
84	Cc1cc(C)c(C)c(OCC(=O)N(Cc2nc(-c3ccccc3)no2)C2CCCCC2)c1	-2	·
85	CC1C(=O)C(C)C(c2ccco2)NC1c1ccco1 (stereo not given)	·	1.4
86	O=C(CNC(=O)c1cccs1)c1ccccc1	-11	0.1
87	Cc1ccc(-n2cc(-c3ccccc3)c3c(=O)[nH]cnc32)cc1	1	-0.2
88	Nc1nnnn1/N=C/c1cccc(Br)c1	4	0.5

No.	Molecule	Sa helicase inh	MgrA-DNA mod
89	CCCCc1c(COC)nc(N)[nH]c1=O	·	-0.9
90	Cc1ccc(NC(=O)C2CC(=O)N(Cc3ccccc3)C(=Nc3ccccc3)S2)c(C)c1 (stereo not given)	-4	-2.2
91	Cn1c(C(=O)NCc2ccccn2)cc2c(=O)n(C)c3ccccc3c21	-10	·
92	O=S(=O)(c1c(F)cccc1F)N1CCN(Cc2c(O)ccc3ccccc23)CC1	-13	·
93	CC(C)N1CCNCC1	7	-2.6
94	O=C1c2ccccc2C(=O)C1c1cc(=O)[nH]c2c1ccc1ccccc12	14	2.3
95	CC(C)CCN1C(=O)c2ccc(C(=O)C(C#N)c3ccccn3)cc2C1=O (stereo not given)	12	·
96	O=C(Cc1ccccc1)NCc1ccc(F)cc1	4	0.0

No.	Molecule	Sa helicase inh	MgrA-DNA mod
97	CC1=C(C)N(c2ccccc2)NC(=S)S1	5	-2.3
98	O=c1[nH]c(O)c(C=NCc2ccc3c(c2)OCO3)c(=O)[nH]1	3	0.4
99	NNC(=O)c1cc2sccc2s1	·	-0.5
100	Clc1ccc(OCc2noc(-c3ccoc3)n2)c(Cl)c1	·	-1.6
101	Cn1c(-c2ccccc2)c(C(=O)COC(=O)c2ccc(C#N)cc2)c2ccccc21	-16	·
102	CCc1nn(CC(=O)NCCc2c[nH]c3ccccc23)c(=O)c2cc3occc3n12	-16	·
103	Cc1ccc(CNC(=O)C2(O)c3ccccc3NC(=O)N2c2ccc(C)c(C)c2)cc1 (stereo not given)	12	0.3
104	Cc1cc2c(cc1S(=O)(=O)N1CCOc3ccccc31)n(C)c(=O)n2C	6	-0.2

No.	Molecule	Sa helicase inh	MgrA-DNA mod
105	O=C(Cn1c(S(=O)(=O)Cc2ccccc2)nc2ccccc21)NC1CC1	7	0.3
106	Cc1cc(C)nc(NS(=O)(=O)c2ccc(NS(=O)(=O)CC34CCC(CC3=O)C4(C)C)cc2)n1 (stereo not given)	-13	·
107	O=S(=O)(NCC(O)c1ccccc1)c1cc(Cl)sc1Cl (stereo not given)	·	-0.8
108	CN(C)c1ccc(/C=C/C=N/N=c2/sc3ccccc3n2C)cc1	-117	·
109	CC(C)c1n[nH]c2c1CCCC2	7	·
110	COC(=O)c1cc(S(=O)(=O)NC2CCCC2)cn1C	8	5.2
111	CN(C(=O)CSc1ccccc1C(=O)O)c1ccccc1	5	-3.1
112	Cc1nc(-c2cc(C#N)c(SCCC(=O)OC(C)(C)C)nc2C)cs1	·	-0.2

No.	Molecule	Sa helicase inh	MgrA-DNA mod
113	O=C(NCCc1ccccc1)c1ccc2nc[nH]c2c1	-6	·
114	O=c1cc(CSc2nc3ccccc3o2)[nH]c(=S)[nH]1	10	6.2
115	COCC(C)NS(=O)(=O)c1c(C)cc(C)cc1C (stereo not given)	4	-6.3
116	CCOC(=O)CN1C(=O)CC(c2ccccc2)C1=O (stereo not given)	13	·
117	CCC1CCCCN1CN1C(=O)c2cc(Cl)c(Cl)cc2C1=O (stereo not given)	5	·
118	C=CCc1ccc(O)c(OC)c1	·	0.2
119	COc1ccc(C2=NN(S(=O)(=O)c3ccc(C)cc3)C(c3ccc(OC)cc3)C2)cc1 (stereo not given)	·	2.6
120	FC(F)(F)c1cc(-c2ccc3ccccc3c2)no1	3	-1.1

No.	Molecule	Sa helicase inh	MgrA-DNA mod
121	COc1cc(/C=C2/SC(=Nc3ccccc3)NC2=O)cc(OC)c1OC	·	-0.2
122	Nc1nc(-c2ccc3c(c2)OCO3)cc(C(F)(F)F)n1	·	-3.6
123	COc1ccccc1NC(=O)C(C)OC(=O)c1cccc(-n2cnnn2)c1 (stereo not given)	1	·
124	COc1ccc(C2NCCc3c2[nH]c2ccccc32)cc1OC (stereo not given)	·	4.3
125	O=c1[nH]c(-c2ccco2)nc2sc3c(c12)CCCC3	-10	-4.0
126	COc1ccc(C(=O)COc2ccccc2)c(OC)c1	5	·
127	COc1cc(C(=O)OC(C)C(=O)N2CCCc3ccccc32)ccc1OCc1c(C)noc1C (stereo not given)	1	·
128	OC(CN1CCN(c2ccccc2)CC1)C(F)(F)F (stereo not given)	·	0.8
129	S=C(NCc1ccc2c(c1)OCO2)Nc1ccccc1	-11	-0.2
130	CC1=Nn2c(nnc2-c2ccc(Cl)cc2)SC1	29	·
131	CN(c1ccc(OCC(=O)N2CCOCC2)cc1)S(=O)(=O)c1ccc(F)cc1	-8	·
